NPYLR7 ag: agonists of mosquito NPYLR7 receptor, primary screen, cell-based, Aedes aegypti, calcium fluorescence, mosquito biting behavior. activation, % at 10 µM. Aedes aegypti neuropeptide Y-like receptor 7 (NPYLR7). HEK293T NPYLR7/Galpha15, GCaMP6s calcium fluorescence. 0.15% of 270,000 active; in the data active = activation above about 40%;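 note: 0% = vehicle and 100% = reference agonist at the receptor; some compounds past the cut are filed as inactive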
NPYLR7 ag max-min: second read-out of NPYLR7 ag, no call of its own (marks repeat the call); activation, %; measured here: Max-Min RFU normalised activation; some inactives read as strong as hits;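 span of the calcium signal over five minutes; 0% = vehicle and 100% = native peptide agonist; compound fluorescence can raise it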
* = called active by the depositor.

SMILES	NPYLR7 ag max-min	NPYLR7 ag
O=C(NCC1CCN(C2CCCC2)CC1)NC(c1ccccc1)c1ccccc1	-1	4
COc1ccccc1CN(CCc1c[nH]c2ccccc12)C(=O)CN(C(=O)c1cc(Cl)cc(Cl)c1)C(C)C	27	23
CC(C)CN1CCC1(C(=O)Nc1cccc(Oc2ccccc2)c1)c1ccccc1 (centres undefined)	-3	1
COc1ccc2nc3cc(Cl)ccc3c(Nc3cc(CN4CCCC4)c(O)c(CN4CCCC4)c3)c2n1	7	3
Cc1ccccc1CN1CCC(CNC(=O)c2ccn(C)c(=O)c2)C1 (centres undefined)	-7	-1
Cc1ccc(C(=O)N(C)c2ccc(OS(=O)(=O)c3sc(=O)[nH]c3C)cc2)cc1	-2	0
Fc1cccc(-c2cc(NCCc3cccnc3)n3nccc3n2)c1	-13	-8
COc1ccc(-c2cnc3ncnn3c2N2CCCN(S(=O)(=O)c3c(C)c(C)c(C)c(C)c3C)CC2)cc1	15	20
CCOC(=O)C1=NN(C(=O)CCc2ccccc2)C(O)(c2ccc(Cl)cc2)C1 (centres undefined)	-13	-11
Cc1cc(-c2nnc(NC(=O)c3cc4ccccc4o3)o2)nn1C	-11	-6
CN1CCCCC1C(=O)NCc1cccnc1N(C)C1CCCCC1 (centres undefined)	10	12
O=C(c1ccc(COc2cccc(Br)c2)o1)N1CCC(N2CCCC2)C1 (centres undefined)	-8	-6
CN(CC1(c2ccccc2)CC1(C)C)C(=O)c1ccco1 (centres undefined)	2	2
COc1ccccc1C(C)NC(=O)C(C)N1CCN(CCO)CC1 (centres undefined)	5	9
CC(=O)Nc1ccc(S(=O)(=O)NC[C@@H]2C=C(C)[C@H](CC(=O)NCCN(C)C)C[C@H]2C(C)C)cc1	26	34
CCOC(=O)c1c(-c2ccccc2)c2cc([N+](=O)[O-])ccc2[nH]c1=O	-6	-5
CCCc1cc(=O)n(CC(=O)N2CCN(c3ccccc3)CC2)c(-n2nc(C)cc2C)n1	-2	-5
CSc1ccccc1NS(=O)(=O)c1ccc2ccccc2c1	6	9
CN(Cc1cccc(C#N)c1)C(=O)c1cnc(OCC(F)(F)F)c(Cl)c1	-6	-5
Cc1ncccc1C(=O)NNS(=O)(=O)c1ccccc1	-3	0
O=C1NCCN(CC(c2ccccc2)c2ccccc2)C1CC(=O)N1CCOCC1 (centres undefined)	4	11
CCOc1ccc(CCCC(=O)N2CCCCC2CO)cc1C (centres undefined)	9	20
Cc1noc2nc(-c3ccc(F)cc3)cc(C(=O)NC3=NCCS3)c12	7	2
CCOC(=O)c1ccc2[nH]cc(C(=O)OCC)c(=O)c2c1	4	5
CCOc1c(Br)cc(Br)cc1CNCC(=O)N1CCCC1	-5	-3

Structural class, those above with bromine
SMILES	NPYLR7 ag max-min	NPYLR7 ag
O=C(c1ccc(COc2cccc(Br)c2)o1)N1CCC(N2CCCC2)C1 (centres undefined)	-8	-6
CCOc1c(Br)cc(Br)cc1CNCC(=O)N1CCCC1	-5	-3

Following part:
SMILES	NPYLR7 ag max-min	NPYLR7 ag
Cc1onc(-c2c(Cl)cccc2Cl)c1C(=O)Nc1ccccc1C(N)=O	5	12
O=C(Nc1cccc(-c2cccc(-c3ccc(F)cc3F)n2)c1)C(Cl)Cl	20	18
Cc1ccccc1NC(=O)NCCNc1ccc(Nc2ccccn2)nn1	10	17
COC(=O)[C@@H]1CCCN1Cc1ccc2c(c1)CN(Cc1cc(OC)cc(OC)c1)CCO2	9	22
COc1ccc(-c2cc(C(=O)N3CCN(C(=O)c4ccccc4OC)CC3)c(C)n2-c2ccccc2F)cc1	5	8
Cc1ccc(-n2nc(-c3cccs3)cc2C(=O)O)cc1	24	17
CC(C)c1nnc(CCC(=O)N2CCCC2CC2CC3CCC2C3)o1 (centres undefined)	4	6
O=C(O)C1(O)CCN(c2ncnc3c2CCC3)CC1	7	9
O=C(CCC(=O)N1CCC2(CC1)OCc1cc(-c3ccc4[nH]ccc4c3)ccc1O2)c1ccc(F)cc1	-26	-24
CCCc1[nH]n(-c2ccccc2)c(=O)c1C1=C(N2CCCCC2)C(=O)N(c2ccc(C)cc2)C1=O	10	10
O=C(CNC(=O)C1CCc2ccccc21)Nc1ccc(F)c(F)c1 (centres undefined)	-2	0
CC(c1ccccc1Cl)N(C1CC1)S(=O)(=O)c1cccc(F)c1 (centres undefined)	7	-1
CCCCCCCC(=O)NC(Cc1ccccc1)C(=O)Nc1nnc(-c2ccc(N(C)C)cc2)s1 (centres undefined)	-2	-3
Cc1nc(C(N)=NOC(=O)c2sc3cccc(Cl)c3c2Cl)no1	-4	-1
NC1=NC(=Nc2ccccc2F)c2ccccc21	1	0
Cc1ccc(F)c(Oc2cc(N3CCN(C(=O)CC(C)C)C(C)C3)ncn2)c1 (centres undefined)	2	-12
Cc1ccc(-c2onc3c2CCCC3)cc1NC(=O)c1cccc(OC(F)(F)F)c1	12	7
O=C(CSc1nc2c(cnn2CCO)c(=O)[nH]1)N1N=C(c2cccs2)CC1c1ccc(F)cc1 (centres undefined)	2	4
CCNCC1CC(c2ccc3c(c2)OCO3)=NO1 (centres undefined)	-1	3
Cc1ccc(CN(CCc2c[nH]c3ccccc23)C(=O)CN(C(=O)NCc2ccccc2)C2CC2)cc1	26	24
CCN(c1ccsc1C(=O)N1CCC(C)CC1)S(=O)(=O)c1ccccc1	-6	-5
CNCC(=O)NCc1noc(-c2ccc3c(c2)OCO3)n1	-1	-1
COc1ccc2oc(=O)c(-c3nnc(Nc4ccc(F)cc4F)s3)cc2c1	-12	-8
N#Cc1ccc(C(=O)CSc2nc3ccccc3o2)cc1	-1	2
COc1ccc(CNc2ccc(C)cc2Br)c(OC)c1OC	-4	-5
CC(=O)OC(OC(C)=O)C12C=CC(O1)C1C(=O)N(c3ccc(C)c(C)c3)C(=O)C12 (centres undefined)	-15	-16
Cc1ccccc1Nc1c([N+](=O)[O-])ccc2c1=NC1(CCCCC1)N=2	0	1
COCCCNC(=O)c1cnc2c(-c3ccc4c(c3)OCO4)cnn2c1C	-5	10
Cc1cc(C)nc(-n2ncc3c2CCCC3=O)n1	8	12
O=C(CSc1nnc(-c2cccs2)n1C1CC1)N1CCCC2CCCCC21 (centres undefined)	15	-5
CN1C(=O)c2cc(NS(C)(=O)=O)ccc2Oc2ccccc21	3	8
CCC(C)c1ccc(OCCOc2ccc(C=C3C(=O)NC(=S)NC3=O)cc2)cc1 (centres undefined)	-11	-4
Cn1cc(N)cc1C(=O)N1CCC(c2cc(Cc3ccccc3)[nH]n2)CC1	7	8
CN(C)C(Cn1ccnc1-c1nc2c(s1)CCCC2)c1ccccn1 (centres undefined)	-1	1
CC(=O)N1CCN(C(=O)C2C3CC4CC(C3)CC2C4)CC1 (centres undefined)	-3	-2
O=C(c1cc(Cl)c2c(c1)OCO2)N1CCCc2cc(OC(F)F)ccc21	-4	0
Cc1cc(C(F)F)n2nc(C(=O)Nc3c(C)nn(Cc4ccc(Cl)cc4)c3C)nc2n1	-9	-4
Cc1ccccc1C(=O)N1C(C(=O)NCc2ccncc2)COC12CCN(C(=O)c1ccccc1Cl)CC2 (centres undefined)	7	2
O=C(O)[C@H]1C[C@@H](O)CCN1Cc1ccc2cccc(Cl)c2n1	1	-1
COc1ccc(-c2n[nH]c(CNS(=O)(=O)N3CCCC(C)C3)n2)cc1 (centres undefined)	8	12
COc1ccc(C2c3cccn3CCCN2Cc2ccsc2)c(OC)c1OC (centres undefined)	6	-4
COc1ccc(CCN(Cc2ccc(C)s2)C(=O)CNC2CCCCC2)cc1OC	-17	-8
COc1cn(CC(=O)NCc2ccco2)c(CSc2nncn2C)cc1=O	-8	-5
CCOc1ccccc1NC(=O)N(Cc1ccc(OC)c(OS(=O)(=O)CC)c1)C(C)C	16	18
O=C(O)CCc1nnc(SCc2cccc(Cl)c2)[nH]c1=O	6	15
CCOC(=O)c1nc2cc(Cl)c(Cl)cc2nc1N1CCN(C(=O)c2oc3ccccc3c2C)CC1	7	7
Nc1nc(-c2ccc(I)cc2)cs1	6	6
CN(C1CCCCC1)S(=O)(=O)c1ccc(NS(=O)(=O)c2cc(F)ccc2F)cc1	-3	-1
Cc1occc1C(=O)N(C)C(c1cccnc1)c1ccc(F)cc1F (centres undefined)	3	6
CC(C)CNCc1noc2c1CSc1ccccc1-2	-1	-1

One compound at a time (already shown).
Cn1cc(N)cc1C(=O)N1CCC(c2cc(Cc3ccccc3)[nH]n2)CC1 across the screens: NPYLR7 ag max-min = 7; NPYLR7 ag = 8
O=C(O)[C@H]1C[C@@H](O)CCN1Cc1ccc2cccc(Cl)c2n1 across the screens: NPYLR7 ag max-min = 1; NPYLR7 ag = -1
CC(=O)N1CCN(C(=O)C2C3CC4CC(C3)CC2C4)CC1 (centres undefined) across the screens: NPYLR7 ag max-min = -3; NPYLR7 ag = -2

Look-ups from above:
Entry of `Cc1cc(C)nc(-n2ncc3c2CCCC3=O)n1` under NPYLR7 ag: 12
Entry of `O=C(O)CCc1nnc(SCc2cccc(Cl)c2)[nH]c1=O` under NPYLR7 ag: 15
Entry of `CCOC(=O)c1nc2cc(Cl)c(Cl)cc2nc1N1CCN(C(=O)c2oc3ccccc3c2C)CC1` under NPYLR7 ag max-min: 7

Additional results follow:
SMILES	NPYLR7 ag max-min	NPYLR7 ag
Clc1ccc2nc(N/N=C\c3ccc4cccnc4c3)nc(-c3ccccc3)c2c1	-9	-4
Cc1ccc(F)cc1C(=O)N1CCN(C(c2ccccc2)c2ccc(Br)cc2)CC1 (centres undefined)	11	5
Cc1cccn2c(=O)c3cc(C(=O)N4CCC5(CC4)OCCO5)sc3nc12	-2	2
Cc1cc(=O)[nH]c(-n2ncc(C(=O)NC3CC3)c2C)n1	3	4
COc1ccc2cc(C3CN(C(=O)COC(C)C)CCO3)ccc2c1 (centres undefined)	-9	-6
Cc1ccc2oc(CN(C(=O)c3ccc(Cl)cc3Cl)C(C)C)nc2c1	0	4
C=CCn1c(=NC(=O)c2ccc(Cl)s2)sc2cc(S(N)(=O)=O)ccc21	2	5
COc1ccc(C2=NC(=Cc3ccc(OC(F)F)c(OC)c3)C(=O)O2)cc1OC	-16	-11
O=C(O)CC1CCCc2ccccc2C1O (centres undefined)	-43	4
CNc1nc2cnc(-c3ccccc3)cc2n1Cc1ccccc1	-9	-2
CCOC(=O)c1ccccc1NC(=O)c1sc2ccccc2c1Cl	11	-5
CCOc1ccnc(N(C)Cc2noc(CC)n2)n1	-6	-4
CC(C)CN(Cc1cccc(Cl)c1)C(=O)[C@@H]1C[C@@H](O)CN1	8	20
Cc1csc(NC(=O)c2cc(-c3ccccc3)n(C3CCS(=O)(=O)C3)n2)n1 (centres undefined)	-4	-2
CCOC(=O)C1C(=O)C=C(c2cccs2)CC1c1cccc(OC)c1 (centres undefined)	19	16
COc1ccc(CCN(C)S(=O)(=O)c2ccc(OC)c(N3CCN(S(=O)(=O)c4cc(C)ccc4C)CC3)c2)cc1OC	4	7
O=C(c1ccc2cc[nH]c2c1)N1CCOC(c2ccccc2)C1 (centres undefined)	11	3
CC(C)C(NC(=O)c1cccc(F)c1)c1ccc2c(c1)OCCCO2 (centres undefined)	6	3
O=C(c1ccc(-c2ccccc2)cc1)C1CCCN(Cc2ccncc2)C1 (centres undefined)	3	6
CCN(CCn1cccn1)C(=O)CC1C(=O)NCCN1Cc1ccccc1C (centres undefined)	3	11
Cc1cc(NC(=O)COC(=O)CCS(=O)(=O)c2ccccc2Cl)no1	-5	-5
COc1ccc(S(=O)(=O)CCC(=O)Nc2nnc(-c3cc(C)n(C)n3)o2)cc1	-14	-10
CC(=O)NC(Cc1ccccc1F)C(=O)N1CCOC(COc2ccc3c(c2)CCCC3)C1 (centres undefined)	12	20
OC(CN(Cc1ccccc1)Cc1ccccn1)c1cccs1 (centres undefined)	1	1
CN(C(=O)c1ccc(C(C)(C)C)cc1)C1CCCCC1O (centres undefined)	-15	-8
C(=C\c1ccco1)/CN1CCC(c2ccncc2)CC1	-2	0
Cc1ccc(C(=O)N2CCN(S(=O)(=O)c3ccc(Cl)s3)CC2)o1	9	15
COCCn1c(O)c(C(C)=Nc2ccnn2C2CCCCC2)c(=O)[nH]c1=S	7	6
CCN(CC)S(=O)(=O)c1ccc2c(c1)nc(SCc1cc(F)ccc1F)n2C(C)C	1	3
COCCOc1nc(-c2ccc(C)cc2)n(-c2ccc(NC(=O)C3C[C@H]3c3ccccc3)cc2)n1 (some centres undefined)	20	24
O=C(NCCN1CCOCC1)C1CC1(c1ccccc1)c1ccccc1 (centres undefined)	-8	-5
O=C(c1cccs1)N(Cc1ccco1)Cc1nccn1Cc1ccc(Cl)cc1Cl	9	13
CC(c1ccccc1)N1CCN(C(=O)Nc2c(F)cc(F)cc2F)CC1 (centres undefined)	12	26
Fc1cc(F)c(F)c(SCc2csc(Cc3ccc4c(c3)OCO4)n2)c1F	18	24

Screening results from PubChem BioAssay.

Not all compounds are listed; count on the stated rates, not on these rows.
